High-throughput results deposited in PubChem BioAssay by several laboratories.
Bead autofluor: counter-screen for toxin protease inhibitors: compound fluorescence. compound autofluorescence counterscreen, microsphere flow cytometry; active compounds read high. fluorescence intensity (concentration not given with the values). 360,000 compounds, 3.1% hits. AID 624483;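 active = at least 3 SD above the mean of all compounds, about 16000 in these data; inconclusive = too few beads counted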;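 note: 100 nL of 1 mM stock went into each well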
Sa RN4220 lethal: S. aureus RN4220 growth inhibition; OD600, 16 h; inhibition, % (concentration not given with the values); 330,000 compounds, 0.33% hits; AID 1259311;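 active = z-score of -3 or lower and OD600 up to 0.18 on both plates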;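 note: plate controls were untreated cells for no effect and reference antibiotic for full effect; stock transfer was 100 nL into about 80 µL; one replicate is shown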
Sa ugtP lethal: growth inhibition of S. aureus ugtP deletion strain | S. aureus RN4220 ugtP deletion, OD600 growth, 16 h; some inactives read as strong as hits | growth inhibition, % (concentration not given with the values) | 330,000 compounds, 0.54% hits;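 active = z-score under -3 and OD600 up to 0.15 on both plates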;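 note: plate controls were untreated wells for no effect and antibiotic for full effect; wells of about 80 µL received 100 nL stock; the first replicate is given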
PrP 5UTR inh: inhibition of PrP 5' UTR reporter expression; inhibition, % (test concentration not listed); 340,000 compounds, 0.35% hits; cell-based PrP 5' UTR mRNA reporter, plate reader; AID 488862;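 active = every replicate at 50% or more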;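 note: 0 = median of the neutral control wells; tested in H4 reporter cells; numbers are from one replicate; inactives centre near -14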
BJeLR viability: BJeLR cell viability loss. BJeLR (HRASV12) viability, CellTiter-Glo ATP luminescence, 48 h; reference of the scale not given here. inhibition, % (no concentration beside the values). 300,000 compounds, 0.17% hits. AID 1554;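 active = replicate mean above 50%; inconclusive = above 50% but judged a plate artefact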;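 note: 50 nL library stock added to about 25 µL; numbers are from one replicate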
Mtb hypoxia rep: inhibitors of hypoxia-regulated fluorescent reporter in Mycobacterium tuberculosis; M. tuberculosis hypoxia-regulated fluorescent reporter, fluorescence; fluorescence inhibition, % (concentration not given with the values); 300,000 compounds, 0.1% hits; AID 1159583;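 active = 35 to 45% if threefold the growth effect, above 45% if 1.5-fold the growth effect; inactive = the rest, general growth blockers included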;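 note: wells of about 50 µL received 100 nL stock; 0% = vehicle wells and 100% = reference inhibitor wells; whole bacteria with a GFP reporter of the hypoxia response; strong numbers were not always called active; many hits fall short of the cut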
Mtb hypoxia rep growth: further read-out of Mtb hypoxia rep, marked with its call; growth inhibition, %; measured here: M. tuberculosis growth (absorbance);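 0% = vehicle and 100% = reference antibiotic; read after six days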
Starred values were filed as active, the others as inactive; ? = inconclusive; . = not tested or not shown; & = joins results of further samples.

Preview, three compounds:
SMILES	Bead autofluor	Sa RN4220 lethal	Sa ugtP lethal	PrP 5UTR inh	BJeLR viability	Mtb hypoxia rep	Mtb hypoxia rep growth
CC1CCCN(CCC(=O)Nc2ccc(F)c(F)c2)C1 (centres undefined)	4083	0.2	7	-1	-6	5	2
O=c1[nH]c2cc3c(cc2cc1C(c1nnnn1C1CCCCC1)N1CCSCC1)OCCO3 (centres undefined)	22680*	0.5	-4	0	.	-3	10
CCC(C)NC(=O)C1(C)CCC(=O)N1Cc1ccccc1OC (centres undefined)	9546	3.1	-1	-38	-9	-6	0

All compounds of this part, from the start:
SMILES	Bead autofluor	Sa RN4220 lethal	Sa ugtP lethal	PrP 5UTR inh	BJeLR viability	Mtb hypoxia rep	Mtb hypoxia rep growth
CC1CCCN(CCC(=O)Nc2ccc(F)c(F)c2)C1 (centres undefined)	4083	0.2	7	-1	-6	5	2
O=c1[nH]c2cc3c(cc2cc1C(c1nnnn1C1CCCCC1)N1CCSCC1)OCCO3 (centres undefined)	22680*	0.5	-4	0	.	-3	10
CCC(C)NC(=O)C1(C)CCC(=O)N1Cc1ccccc1OC (centres undefined)	9546	3.1	-1	-38	-9	-6	0
CC(C)(C)OC(=O)NCCNC(=O)c1cccs1	3385	6.1	8	-11	-6	-2	2
O=C(CN(CC1CCCO1)C(=O)CNS(=O)(=O)c1ccc(F)cc1)NC1CCCC1 (centres undefined)	3921	-0.9	1	-8	5	5	7
O=C1Nc2ccc(Cl)cc2C12Nc1ccccc1-c1nnc(SCc3ccccc3F)nc1O2 (centres undefined)	11486	4.1	-3	-26	-14	5	0
O=C(CC(=O)NN=Cc1ccc(F)cc1)NN=Cc1ccc(F)cc1	.	-0.3	-7	.	.	-7	-8
COc1ccc(OC)c(NC(=O)CSc2nncc(=O)n2N)c1	.	1.7	1	-11	-3	1	3
O=C(N/N=C/c1ccco1)c1ccn[nH]1	3601	.	.	-15	-1	.	.
COc1cc(/C=N/NC(N)=O)c(Br)cc1OCC(=O)Nc1ccccc1C	4217	.	.	-11	-3	.	.
Cc1ccccc1-n1ncc2c1CC(C)(C)CC2NC(=O)CCC(F)(F)F (centres undefined)	3652	-1.7	10	-12	-5	1	8
CCNC(=S)NN=Cc1cc(C)ccc1C	.	3.6	7	.	.	8	1
COc1cccc(N2CCN(C(=S)Nc3ccc(F)cc3)CC2)c1	3244	3.3	3	-17	-4	4	-2
Cc1cc(C)n(CC(=O)NC2CCCN(Cc3ccc(Cl)cc3)C2)n1 (centres undefined)	3243	-3.6	-1	-3	0	-5	5
CC(C)CC(=O)NCCc1ccncc1	22906*	3.7	2	-3	-6	6	14
Cc1ccc(Nc2nnc(SCC(=O)NC3CCCc4ccccc43)s2)cc1 (centres undefined)	2452	-2.4	6	-10	-1	-1	7
CC(C)(CO)NS(=O)(=O)c1ccc2c(c1)Cc1cc(S(=O)(=O)NC(C)(C)CO)ccc1-2	4284	4.3	5	-21	-12	3	-5
CCCCCC=CC1=CC(=O)CC(c2ccc(Cl)cc2)C1 (centres undefined)	.	2.0	18	.	.	0	12
Cc1ccc(NC(=O)c2ccc(OC(=O)c3cc4ccccc4o3)cc2)cc1	4347	2.1	-5	-75	4	7	8
COc1ccc(/C=N/NC(=O)c2cccc(OC(F)(F)C(F)F)c2)c(OC)c1OC	2726	.	.	-19	10	.	.
O=C(c1cccc(N2CCCC2=O)c1)N1CCOCC1	4161	7.8	10	-10	-13	1	4
O=C(C1=C[C@@H](c2csc3ccccc23)C[C@@H](OCc2ccc(CO)cc2)O1)N1CCOCC1	4050	.	.	-23	1	.	.
COc1cc(NCc2ccccc2O)c2ncccc2c1	3584	3.6	-6	-22	11	-5	-2
COc1ccc(-n2cc(CNC3CCC(O)CC3)c(-c3cccc(F)c3)n2)cc1 (centres undefined)	2577	-0.5	2	-21	-7	3	8
COc1ccc(CNS(=O)(=O)c2ccc(C)cc2)cc1	4133	8.4	-5	-14	0	10	8
Cc1ccc(S(=O)(=O)Nc2cc(=O)[nH]c(SCC(=O)Nc3ccccc3Cl)n2)cc1	4263	2.7	5	-17	.	10	0
CC1=C(C(=O)Nc2ccccc2C(F)(F)F)C(c2sccc2C)NC(=S)N1 (centres undefined)	4319	3.0	3	-73	8	4	0
O=C(CSc1nc(Nc2ccccc2)nc(N2CCOCC2)n1)NC1CCCCC1	?	2.1	-4	-17	2	4	1
CCCCCCSc1ccc(C2C3C(=O)N(CC)C(=O)C3[C@]3(C(=O)OC)CCCCN23)cc1OC (some centres undefined)	.	3.6&-1.7	6&-21	.	.	6&4	3&6
O=C(NCc1ccc2c(c1)OCO2)C(C(=O)c1ccccc1)n1cc(Cl)ccc1=O (centres undefined)	2030	12	-2	-17	-5	1	0
C=C(C)CN(CC)C(=O)CCc1nnc(CCCc2ccccc2)o1	4691	4.7	10	-65	4	6	7
O=S(=O)(NCc1cccs1)c1ccccc1Cl	6132	6.3	5	-7	-5	6	2
Cc1cccc(N(CC(=O)NC(C)C)C(=O)CCC(=O)Nc2nccs2)c1	3479	3.2	14	-24	-4	17	11
O=C(Nc1ccccc1)N1CCCC(c2nc(-c3cccs3)no2)C1 (centres undefined)	11157	3.2	-2	-24	-5	1	12
Cc1cc(=O)oc2c3c(cc(OCC(=O)NCCC(=O)N[C@@H](C)C(=O)O)c12)OC(C)(C)CC3	3256	4.1	6	-6	4	-5	-11
Cc1ccc(O)c(N=Nc2nccs2)c1	8338	-1.3	-3	-3	.	.	.
O=C(Nc1ccc2c(c1)OCO2)c1noc2c1CCCCC2	10380	6.3	-2	-28	1	5	6
CC1CC(C)CN(S(=O)(=O)c2ccc(NC(=O)[C@@H]3CCCN3C(=O)c3cccs3)cc2)C1 (some centres undefined)	9186	8.3	4	-7	.	7	2
CCOC(=O)C(CCC[N+](C)(CC)CC)=NO	.	0.9	9	.	.	10	-8
COc1ccc(C(=O)NC2CC2)cc1OC1CCN(Cc2ccc(F)cc2F)CC1	5757	0.5	4	-8	-4	10	5
NC(=NOC(=O)C=Cc1ccccc1)c1ccccn1	.	-1.9	-12	.	.	-2	2
CCOC(=O)C(C)n1cnc2sc3c(c2c1=O)CCC3 (centres undefined)	3418	1.8	-8	-5	-7	6	8
Cc1ccc(C(=O)N/N=C/c2ccc(S(=O)(=O)O)o2)c(Cl)c1	4074	.	.	-3	-7	.	.
OCC[C@@H]1C[C@@H](O)[C@H](O)[C@@]2(Cc3ccccc3CCO2)O1	3776	.	.	-29	-1	.	.
N=c1c(C(=O)NCCc2ccccc2)cc2c(=O)n3ccccc3nc2n1CCCN1CCOCC1	5745	1.8	14	6	6	18	11
CC1CCN(C(=O)CN2C(=O)NC3(CCCCCC3)C2=O)CC1	8182	3.5	2	-26	.	-1	2
CCOC(=O)Cc1ncccc1C(=O)Nc1ccc(Oc2ccccc2)cc1	4544	3.6	-2	-4	3	7	-3
Cc1oc(-c2ccc(Cl)cc2)nc1CS(=O)CC(=O)NC1CCCCC1 (centres undefined)	.	-4.6	-18	-9	1	-10	7
COc1ccc(NC(=O)c2sc3nc(N4CCOCC4)c4c(c3c2N)CC(C)(C)OC4)c(OC)c1	5635	5.4	3	-19	-4	-1	2
CSc1ncccc1C(=O)N1CCN(S(=O)(=O)c2ccc3c(c2)OCCO3)CC1	8977	1.7	2	-2	.	-7	-20
O=C(CSc1nnnn1Cc1ccccc1)c1ccccc1	3433	-3.3	0	-37	-3	3	-4
N#CCC(=O)Nc1ccc(C(=O)NNC(=O)c2ccccc2-n2cccc2)cc1	8901	1.7	-1	2	.	-2	-2
Cc1nn(C)c(Oc2ccc(Cl)cc2)c1C(=O)O	3913	8.2	11	-19	-9	5	8
COc1ccc(NC(=O)CSc2ccc(F)cc2)cc1S(=O)(=O)N1CCCCC1	2508	5.2	7	-24	-3	2	-2
CCOc1cc(NC(=O)C(C)C)c(OCC)cc1NC(=O)Nc1ccccc1	3686	-0.5	0	-18	-5	4	18
COc1ccc(C=NNc2ccccn2)cc1O	.	1.4	6	.	.	9	3
O=C(Nc1ccc(Cl)c(S(=O)(=O)N2CCCC2)c1)c1cc(=O)[nH]c2ccccc12	.	0.0	0	-16	.	8	4
COc1ccc(-c2csc(NC(=O)C3CC(=O)N(Cc4ccco4)C3)n2)cc1 (centres undefined)	4817	-3.5	1	-31	2	-6	-5
O=C(Nc1nnc(C2CC2)o1)c1ccc(S(=O)(=O)N2CCCCC2)cc1	5944	44	4	-20	11	3	6
COc1ccc(C(NC(=O)c2ccco2)c2ccc(OC)c(OC)c2)cc1OC	6746	4.1	4	0	-5	-2	-3

The list goes on.
SMILES	Bead autofluor	Sa RN4220 lethal	Sa ugtP lethal	PrP 5UTR inh	BJeLR viability	Mtb hypoxia rep	Mtb hypoxia rep growth
COc1ccc(C=NNC(=O)c2cccc(Br)c2)cc1CSc1ccccn1	.	-3.7	-6	.	.	-4	-1
O=C(CSc1nnc2ccccn12)NCCc1ccc(Cl)cc1	4423	8.6	3	-24	2	6	9
Cc1ccc(C(=O)Nc2c(-c3cccs3)c(=O)c3ccccc3n2C)cc1	11204	6.7	-13	-12	5	5	1
COc1ccccc1N1CCN(C(=O)c2cc3cc(F)ccc3[nH]2)CC1	4069	4.1	1	-23	10	-9	-3
COc1ccc(-c2cc3c(=O)n(CC(=O)N4CCN(C)CC4)ncn3n2)cc1	4343	5.6	5	-19	-6	3	2
C/C(N)=C(/C#N)C(=O)COC(=O)CNS(=O)(=O)c1ccc(F)c(F)c1F	4626	6.5	0	-20	-1	-4	3
COC(=O)c1ccc(C2C3=C(Nc4nnnn42)c2ccccc2OC3)cc1 (centres undefined)	7061	5.1	13	-4	-11	3	0
CC1(C)OC(C)(C)/C(=C/Nc2ccc(O)cc2)C1=O	10234	7.4	-4	7	-16	4	2
CCCn1c(SCC(=O)NC2CCCCC2)nnc1-c1ccncc1	3521	4.8	7	-4	2	4	0
O=C(N/N=C\c1cccnc1)c1ccc(Cl)s1	5383	.	.	-9	-2	.	.
CCn1c(CN2CCOCC2)nnc1SCC(=O)Nc1ccccc1Cl	3877	.	.	-26	-14	.	.
CN(C)/C=C1/C=C(c2ccccc2)OC1=O	11340	-0.5	-4	-17	-7	-10	1
CCOC(=O)/C(=C\C=C1/Sc2cc(OCC)c(OCC)cc2N1CC)C(C)=O	33036*	1.0	-6	-14	-10	-145	7
COc1cc(C=NNC(=O)c2cccnc2)ccc1OS(=O)(=O)c1ccc(C)cc1	.	2.2	59	.	.	-1	7
CCN1C(=O)CC(C(=O)Nc2ccc(F)cc2)SC1=Nc1ccc2c(c1)OCO2 (centres undefined)	3138	-16	-5	-7	-9	17	15
CCOC(=O)C(C(=O)OCC)C(C)C#CCN1CCCCC1 (centres undefined)	3044	-12	0	-9	5	16	16

Single records, from the list above. Order of screens: Bead autofluor | Sa RN4220 lethal | Sa ugtP lethal | PrP 5UTR inh | BJeLR viability | Mtb hypoxia rep | Mtb hypoxia rep growth
Profile of COc1ccc(C=NNc2ccccn2)cc1O → . | 1.4 | 6 | . | . | 9 | 3
Profile of O=S(=O)(NCc1cccs1)c1ccccc1Cl → 6132 | 6.3 | 5 | -7 | -5 | 6 | 2
Profile of O=C1Nc2ccc(Cl)cc2C12Nc1ccccc1-c1nnc(SCc3ccccc3F)nc1O2 (centres undefined) → 11486 | 4.1 | -3 | -26 | -14 | 5 | 0
Profile of COc1ccc(/C=N/NC(=O)c2cccc(OC(F)(F)C(F)F)c2)c(OC)c1OC → 2726 | . | . | -19 | 10 | . | .
